Calb FLC: affects C. albicans growth with fluconazole. AID 1979. 0.57% of 300,000 active. growth inhibition, % (no concentration beside the values). C. albicans CaCi-2 (fluconazole-resistant clinical isolate) + fluconazole, Alamar Blue growth, 48 h;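 active = most replicates above 75%; inconclusive = exactly half above 75%; inactive = most below 75%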;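 also: all wells also contain fluconazole at 8 µg/ml as a sub-toxic cotreatment; 0% = median of DMSO wells and 100% = median of geldanamycin control wells; wells of about 8 µL received 7.5 nL stock; the first replicate is given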
Ecoli rRNA inh: selective bacterial rRNA inhibition in E. coli; E. coli WT GFP vs humanized-ribosome RFP mutants, fluorescence, 24 h; stronger effect = lower value; DMSO median 0, no signal -100; GFP signal change (wild-type ribosome), % (no concentration beside the values); 1.6% of 350,000 active; AID 720706;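 active = significant combined selectivity score with lowered wild-type GFP, culture density cut under 30%, mutant RFP and density less affected; inactive = any of these conditions unmet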; also: one replicate is shown; some compounds called inactive have numbers as strong as hits
RanGTP-Imp inh: disruptors of Ran-importin-beta complex formation – biochemical, FRET, CFP-Ran, YFP-importin-beta, homogeneous, primary screen; cell-free CFP-Ran/YFP-importin-beta FRET ratio; inhibition, % (no concentration beside the values); 1.1% of 300,000 active; AID 2216;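 active = most replicates above 15%; inconclusive = exactly half above 15%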;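 also: 0% = DMSO wells and 100% = Ran loaded with GDP instead of GTP; wells of about 40 µL received 100 nL stock; the first replicate is given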
Vif A3G: inhibitors of Vif binding to APOBEC3G peptide, primary screen, biochemical, TR-FRET, GST-Vif 1-94, biotin-A3G peptide, dose response retest (AID 1117319); inhibition, %, or IC50 in µM where a hit was titrated; 0.57% of 260,000 active; TR-FRET GST-Vif / biotin-A3G peptide binding; higher % means a stronger effect; test concentration not given here; strong numbers were not always called active;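 active = above the screen mean plus three standard deviations and confirmed in dose response; inconclusive = results disagree or hit not tested in dose response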;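 also: Vif residues 1-94 fused to GST binding biotinylated APOBEC3G peptide 110-148; 0% = full assay without inhibitor and 100% = GST in place of GST-Vif; retest series ran down from 100 µM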
Bfl-1 A1 inh: inhibitors of the anti-apoptotic protein A1, read as caspase activation. 0.066% of 330,000 active. caspase activation, % (test concentration not listed). MEF A1-2A-BIM cells, Caspase-Glo 3/7 luminescence, 3 h; percent of clofoctol response, vehicle zero;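 active = over half of replicate activation scores above 10%, or exactly half above 10 with the replicate mean above 10; inconclusive = replicate mean below 10 yet half the replicates above 10; inactive = over half of replicates below 10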;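 also: wells of about 30 µL received 50 nL stock; many hits fall short of the cut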
T cruzi repl: blocks replication of Trypanosoma cruzi | 1.4% of 300,000 active | AID 1885 | T. cruzi beta-gal in NIH3T3, luminescence, 90 h | inhibition, % (no concentration beside the values);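 active = mean inhibition across valid replicates above about 55%, limit read from the data; inconclusive = mean below that limit but half or more replicates reach it; inactive = mean below it, under half of replicates reach it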;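 also: signal also drops with host cell toxicity which is not excluded here; 0% = plate median of DMSO wells and 100% = zero luminescence signal; higher percent means less beta-gal luminescence so fewer parasites; stock transfer was 50 nL into about 50 µL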
Beta cell apopt: beta cell apoptosis inhibition. INS-1E cytokine-induced death, ATP luminescence, 48 h; percent of positive-control rescue, neutral wells zero. 0.8% of 300,000 active. protection from apoptosis, % (concentration not given with the values). AID 435005;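 active = all replicates at 75% or more, or half of them and the mean; inconclusive = half reach 75% but not the mean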;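 also: 0% = cytokine-treated negative control wells and 100% = positive control rescue; higher means more ATP so stronger rescue from cytokine killing; wells of about 40 µL received 100 nL stock; the first replicate is given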
AF4-AF9 inh: MLL-AF4/AF9 protein interaction inhibition | P42568 | AlphaScreen, biotin-AF4 peptide binding to FLAG-AF9 | inhibition, % at 10 µM | 0.47% of 350,000 active;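 active = every replicate reaching a set inhibition limit, whatever the replicate mean, cut at about 25% in these data; inconclusive = mean inhibition reaches that limit but some replicates miss it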;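 also: 0% = plate neutral control median and 100% = total signal loss; the record names both 10 and 1 µM as test concentration; the first replicate is given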
Target sequence (P42568 whole entry, looked up): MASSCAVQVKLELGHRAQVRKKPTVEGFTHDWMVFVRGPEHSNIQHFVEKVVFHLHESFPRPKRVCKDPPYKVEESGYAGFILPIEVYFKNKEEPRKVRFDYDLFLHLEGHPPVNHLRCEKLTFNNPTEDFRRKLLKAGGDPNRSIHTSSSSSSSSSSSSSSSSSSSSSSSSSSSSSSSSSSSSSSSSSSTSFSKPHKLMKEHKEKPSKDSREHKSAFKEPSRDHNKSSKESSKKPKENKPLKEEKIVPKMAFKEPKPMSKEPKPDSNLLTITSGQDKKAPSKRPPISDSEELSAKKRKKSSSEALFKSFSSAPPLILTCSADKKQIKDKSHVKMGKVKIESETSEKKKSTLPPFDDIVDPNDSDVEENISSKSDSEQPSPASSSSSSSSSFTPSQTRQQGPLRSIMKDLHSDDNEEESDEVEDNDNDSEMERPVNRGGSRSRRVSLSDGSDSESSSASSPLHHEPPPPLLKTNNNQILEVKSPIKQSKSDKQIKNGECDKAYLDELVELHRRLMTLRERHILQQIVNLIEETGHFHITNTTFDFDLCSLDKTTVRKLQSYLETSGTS
Ecoli rRNA inh OD600: second read-out of Ecoli rRNA inh, no call of its own (marks repeat the call); OD600 change, %; measured here: OD600 growth;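 optical density of the mix in the first replicate; 0 = DMSO median and -100 = no signal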
Ecoli rRNA inh RFP: second read-out of Ecoli rRNA inh, no call of its own (marks repeat the call); RFP signal change, %; measured here: RFP humanized mutant strains;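 first replicate; 0 = DMSO median and -100 = no signal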
Active calls of the source: *; ? = inconclusive; . = no result given; & = joins results of further samples.

SMILES	Calb FLC	Ecoli rRNA inh	Ecoli rRNA inh OD600	Ecoli rRNA inh RFP	RanGTP-Imp inh	Vif A3G	Bfl-1 A1 inh	T cruzi repl	Beta cell apopt	AF4-AF9 inh
CCSC1=N/C(=C\c2ccc(C(=O)O)cc2)C(=O)S1	1	.	.	.	-1.2	4%	0.1	1	-3	.
OC(CN1C2=NCCN2c2ccccc21)c1ccc2c(c1)OCO2 (centres undefined)	-3	.	.	.	-1.3	?	0.3	9	-1	.
CN(C(=O)Nc1ccccc1)C1CCCCC1	4	3	6	1.5	-1.7	24%	0.4	-12	-4	1.5
CCO[C@@H]1OC(C(=O)Nc2ccccc2)=C[C@H](c2csc3ccccc23)[C@H]1CCCO	15	-4	-1	-7.5	2.0	.	0.2	43	8	3.6
Cc1ccc(C(=O)Nc2ccc3c(c2)OCCO3)o1	9	-8	-12	-3.1	-1.4	1%	-6.3	-21	7	4.3
CCCCNc1cc(C)oc(=O)c1C(C)=O	7	-1	-6	-2.5	-2.6	16%	-0.4	9	-10	.
S=c1nc(-c2cc(Cl)ccc2Cl)[nH][nH]1	-10	-4	-10	0.8	-1.7	-12%	0.0	-18	-2	-6.0
Cc1ccc(S(=O)(=O)N(C)CC(=O)Nc2cccc(C)n2)cc1	-12	.	.	.	4.4	-4%	0.6	-13	-5	.
CC(=O)Nc1ccc(NC(=O)C(C)OC(=O)C23CC4CC(CC(Cl)(C4)C2)C3)cc1 (centres undefined)	.	-26*	-19*	1.3*	.	-6%	0.5	.	-3	8.3
O=C(Nc1cc(C(F)(F)F)ccc1N1CCOCC1)c1ccc(Br)o1	-11	.	.	.	-1.8	18%	0.5	39	-3	.
COc1cccc(C2OC(=O)c3ccccc3N2C(C)=O)c1OC(C)=O (centres undefined)	4	.	.	.	-0.9	2%	0.0	-8	-8	.
O=C(NCC1CCN(S(=O)(=O)c2ccccc2)CC1)Nc1ccc(F)cc1	-3	-12	3	2.8	-0.3	-10%	0.3	11	2	6.9
Cc1cc(C)n(CCN(C)Cc2nc(Cc3ccccc3F)no2)n1	34	4	19	1.7	-1.8	.	-0.3	-9	-10	-0.8
O=C(O)CCc1ccc(-c2ccccc2)n1CC(=O)O	12	.	.	.	10	7%	0.4	-15	-4	.
Cc1cccc(N2CCN(C(=O)/C=C/c3ccco3)CC2)c1C	7	.	.	.	2.3	20%	1.2	24	-4	0.6
O=C(NCc1ccc2[nH]c3c(c2c1)CCCC3)c1ccc(S(=O)(=O)N2CCCC2)cc1	-8	-2	-7	-0.1	1.9	21%	-1.0	2	6	-1.7
CC1CC(NC(=O)CC#N)CC(C)(C)C1 (centres undefined)	-24	8	7	3.2	7.8	-4%	-0.7	-17	.	-4.5
COc1ccc(S(=O)(=O)c2ccc(OC)cc2)cc1	1	.	.	.	-3.2	-1%	0.1	6	-9	.
COc1ccc(/C=C/C(=O)Nc2ccc3c(c2)OCCO3)cc1OC	-5	.	.	.	-3.3	?	2.3	-2	-8	.
COc1ccccc1C(=O)N(C)c1nnc(-c2ccccc2)s1	-7	-14	-19	-1.0	4.6	-8%	-1.3	5	0	-4.4
CCOC(=O)c1sc2nc(C)[nH]c(=O)c2c1C	10	2	6	0.2	7.7	-5%	0.5	3	1	-8.5
CC(NS(=O)(=O)c1ccccc1Cl)C1CC2CCC1C2 (centres undefined)	-19	-30	-54	-0.9	?	.	-0.1	11	-4	-2.0
CC(Oc1ccccc1)C(=O)N=C1SC2CS(=O)(=O)CC2N1c1ccccc1 (centres undefined)	-1	18	5	-0.8	-0.7	.	1.9	7	-3	0.9
O=C(Nc1c(C(=O)Nc2ccccc2)cnn1-c1ccccc1)c1ccco1	14	-6	-10	1.1	-1.5	-4%	1.9	4	3	-62
O=C(CCCc1ccccc1)Nc1ccc(S(=O)(=O)N2CCOCC2)cc1	-8	-8	-10	1.0	-2.4	-7%	0.4	1	-13	10
Cc1nonc1NC(=O)CSc1nnc(N)s1	28	3	10	-3.0	-5.9	.	-0.1	-1	-3	2.1
COc1ccc(-n2cc(-c3ccc(C)cc3)[n+]3c2SCC3)cc1	107*	.	.	.	1.4	.	0.1	59*	113*	.
NS(=O)(=O)c1ccc(NC(=S)NCCc2ccccc2)cc1	-18	-3	5	1.5	-1.3	-4%	-1.4	.	-3	0.4
COc1ccc(OCCCC(=O)Nc2nc(-c3ccccn3)cs2)cc1	4	-38	-46	-5.8	?	25%	-0.1	62*	6	-1.3
Cc1c(NS(=O)(=O)c2ccc3c(c2)CCN3C(=O)C2CC2)c(=O)n(-c2ccccc2)n1C	0	.	.	.	2.3	-4%	1.0	-25	-1	.
CC(=O)c1ccc(S(=O)(=O)N2CCC(c3nc4ccccc4[nH]3)CC2)cc1	-3	-1	-6	-0.2	3.2	.	-0.1	-8	5	-1.5
Cc1nc(-c2ccc(Cl)cc2)sc1C(=O)CBr	7	6	-7	-1.5	-1.4	?	-4.8	-17	-15	1.2
COc1ccc(NC(=O)C2CCCO2)cc1 (centres undefined)	2	.	.	.	-1.8	3%	-0.5	-3	7	.
CC1CCN(CC(O)CN2c3ccccc3Sc3ccccc32)CC1 (centres undefined)	-5	.	.	.	?	-15%	-0.1	20	0	.
CN(CCOc1ccccc1)C(=O)C1CCC(=O)N(CCCN2CCOCC2)C1 (centres undefined)	-5	12	15	0.5	1.5	10%	-0.5	-15	-6	0.2
CCc1noc(C)c1C(=O)N(C)CC(=O)Nc1ccc(Cl)c(Cl)c1	13	-3	-6	-0.1	-0.3	6%	1.2	-4	1	0.0
COc1ccc(-c2ccc(S(=O)(=O)n3nc(OC(=O)c4cccs4)cc3N)cc2)cc1	-3	4	-3	-8.2	1.6	.	-0.3	5	-2	-8.9
Cc1ccc(S(=O)(=O)N(C)c2ccc(OC(=O)c3ccc(=O)[nH]c3)cc2)cc1	-22	-14	-15	0.5	1.9	-2%	-0.9	-5	-2	1.2
CC(=O)Nc1ccc(SCC(=O)NCC2(N3CCCCC3)CCCCC2)cc1	.	.	.	.	.	-1%	0.5	.	-6	-2.8
Cc1ccc(-n2nc(C)c3c(C(=O)OCC(=O)N(C)C4CCS(=O)(=O)C4)cc(-c4ccccc4)nc32)cc1 (centres undefined)	-19	.	.	.	-2.3	.	0.1	-9	-1	.
O=C(Nc1ccccc1Oc1cccnc1)C1CCCN(Cc2ccc(F)cc2)C1 (centres undefined)	17	-3	1	-3.9	0.3	-6%	0.4	41	5	1.2
CN1C(=S)SC(/[N+]([O-])=C\c2ccccc2F)C1(C)C (centres undefined)	7	8	4	-1.6	4.1	5%	0.1	-8	-1	4.0
CC1CC(C)CN(S(=O)(=O)N2CCC(C(=O)NCc3ccco3)CC2)C1 (centres undefined)	14	-1	7	0.0	4.4	-11%	1.3	-10	-3	1.1
Cc1csc(NC(=O)c2ccc(Cn3nc(C)c(Br)c3C)o2)n1	7	-17	-23	0.2	2.5	.	-0.6	-6	24	-0.5
COc1ccccc1CNC(=O)C1CCN(C(=O)c2sccc2-n2cccc2)CC1	-6	9	20	0.1	-1.7	.	-0.2	-9	9	-12
O=S(=O)(NCCOCC(F)(F)C(F)F)c1ccc2oc3ccccc3c2c1	1	.	.	.	-0.2	1%	0.0	-15	1	.
COc1ccc(/C(=N\O)c2nccc3cc(OC)c(OC)cc23)cc1OC	13	10	1	0.8	0.8	6%	0.6	-6	-9	-2.7
COc1ccc(C(=O)Oc2ccc(Br)cc2C(=S)N2CCOCC2)cc1	-10	-10	-10	0.7	3.3	.	-0.8	-3	0	9.4
CCCCNc1c(-c2ccc(-c3cccc(Cl)c3)cc2)nc2ccccn12	22	-3	-15	-10	3.9	.	-7.6	22	110*	8.4&8.6
CCOc1ccc(OCCC(=O)N(CC)CC(=O)Nc2c(F)cccc2F)cc1	.	4	4	-0.4	.	-5%	0.3	.	9	-0.8
COc1cc2[nH]c(=S)n(C3CCN(Cc4ccccc4)CC3)c(=O)c2cc1OC	19	-3	4	-1.4	?	6%	-0.1	4	1	-0.6
Cn1c(CN2CCCC2)nc2cc(NC(=O)c3ccco3)ccc21	2	12	8	4.4	0.7	2%	-0.6	-20	14	.
COc1ccc2cc(C(=O)NCC(=O)O)sc(=O)c2c1OC	0	.	.	.	5.2	-5%	.	1	.	.
O=C(c1ccco1)N1CCN(Cc2cccc3ccccc23)CC1	0	-8	-11	-1.0	0.5	.	-0.2	16	4	2.0
O=[N+]([O-])c1ccc(CS(=O)(=O)N2CCN(c3ccccc3)CC2)cc1	-5	10	12	-1.1	7.8	.	-0.3	5	1	-1.1
CN(N)c1nc(-c2ccccc2)nnc1C(F)(F)F	5	.	.	.	4.7	5%	-0.3	0	3	.
Cc1c(C2(O)CCCCC2)[nH]c2ncccc12	.	-4	-3	-15	.	.	1.3	.	0	-15
O=C(CC1CCCC1)Nc1cccc(Br)c1	1	-10	-13	0.4	1.6	4%	0.6	-6	.	-3.2
CCOC(=O)c1c(NC(=O)CC)sc(C(=O)NC2CCCC2)c1C	-4	3	17	-0.1	6.6	.	1.2	13	-8	2.8

Assay outcomes from PubChem.

These rows are one share of the data; rates above refer to the full screens.
